# Vif A3G: HIV-1 Vif–A3G interaction blockers – biochemical, TR-FRET, GST-Vif 1-94, biotin-A3G peptide, dose response retest, primary screen (AID 1117319); hit rate 0.57% among 260,000; TR-FRET GST-Vif / biotin-A3G peptide binding; higher % means a stronger effect; test concentration not given here; strong numbers were not always called active; inhibition, %, or IC50 in µM where a hit was titrated;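 active = above the screen mean plus three standard deviations and confirmed in dose response; inconclusive = results disagree or hit not tested in dose response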;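 note: Vif residues 1-94 fused to GST binding biotinylated APOBEC3G peptide 110-148; 0% = full assay without inhibitor and 100% = GST in place of GST-Vif; retest series ran down from 100 µM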
# Ecoli growth: E. coli growth inhibition; Escherichia coli growth, OD600, 23 h; hits give low values; hit rate 0.21% among 330,000; OD600 absorbance (no concentration beside the values); AID 1053175;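 active = OD600 absorbance below the run mean of sample wells minus 3.6 SD, in any replicate, cut at about 0.56 in these data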;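 note: stock transfer was 300 nL into about 60 µL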
# rRNA inh HTS: selective bacterial rRNA inhibition in E. coli. AID 720706. E. coli WT GFP vs humanized-ribosome RFP mutants, fluorescence, 24 h; hits give low values; DMSO median 0, no signal -100. hit rate 1.6% among 350,000. GFP signal change (wild-type ribosome), % (no concentration beside the values);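 active = significant combined selectivity score with lowered wild-type GFP, culture density cut under 30%, mutant RFP and density less affected; inactive = any of these conditions unmet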; note: one replicate is shown; some compounds called inactive have numbers as strong as hits
# FGF22 binding: FGF22 (human) thermal shift binding; Q9HCT0; recombinant FGF22 thermal shift, SYPRO orange fluorescence; percent of sucrose octasulfate shift, DMSO zero; calls only at 9.99 µM; hit rate 1.5% among 340,000; AID 651658;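 active = melting point raised past a set limit in the mean and every replicate; inconclusive = no clear call; three in four hits are not shown here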
# HNF4A DNA FP: change in binding of human HNF4 alpha to DNA; P41235; HNF4a-FITC DNA binding, fluorescence polarization, 1 h; activity change, % at 10 µM; hit rate 0.3% among 360,000; AID 1224865; in the data active = activity change above about 30%, passing the limit was not always enough;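 note: controls were the assay level and a saturating level of protein; the project sought stronger binding though the title names inhibitors; some compounds called inactive have numbers as strong as hits; positive values seem to mean higher polarization but the record does not say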
# Target sequence (P41235 whole entry, looked up): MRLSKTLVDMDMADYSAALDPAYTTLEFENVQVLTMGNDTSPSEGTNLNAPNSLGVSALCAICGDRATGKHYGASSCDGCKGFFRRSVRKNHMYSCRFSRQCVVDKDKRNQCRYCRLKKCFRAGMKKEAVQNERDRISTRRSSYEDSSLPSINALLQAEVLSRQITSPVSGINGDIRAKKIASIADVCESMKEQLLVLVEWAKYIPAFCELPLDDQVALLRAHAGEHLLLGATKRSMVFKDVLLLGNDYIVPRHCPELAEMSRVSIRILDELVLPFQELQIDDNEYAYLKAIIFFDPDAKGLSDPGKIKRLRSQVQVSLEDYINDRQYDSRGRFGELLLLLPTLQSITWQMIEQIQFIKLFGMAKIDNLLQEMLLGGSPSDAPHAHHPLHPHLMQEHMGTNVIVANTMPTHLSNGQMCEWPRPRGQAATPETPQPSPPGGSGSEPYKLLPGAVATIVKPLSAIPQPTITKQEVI
# MLL AF4-AF9 inh: inhibitors of human MLL-AF4/AF9 interaction; AID 651704; AlphaScreen, biotin-AF4 peptide binding to FLAG-AF9; P42568; inhibition, % at 10 µM; hit rate 0.47% among 350,000;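 active = every replicate reaching a set inhibition limit, whatever the replicate mean, cut at about 25% in these data; inconclusive = mean inhibition reaches that limit but some replicates miss it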;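 note: 0% = plate neutral control median and 100% = total signal loss; the record names both 10 and 1 µM as test concentration; the first replicate is given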
# Target sequence (P42568 whole entry, looked up): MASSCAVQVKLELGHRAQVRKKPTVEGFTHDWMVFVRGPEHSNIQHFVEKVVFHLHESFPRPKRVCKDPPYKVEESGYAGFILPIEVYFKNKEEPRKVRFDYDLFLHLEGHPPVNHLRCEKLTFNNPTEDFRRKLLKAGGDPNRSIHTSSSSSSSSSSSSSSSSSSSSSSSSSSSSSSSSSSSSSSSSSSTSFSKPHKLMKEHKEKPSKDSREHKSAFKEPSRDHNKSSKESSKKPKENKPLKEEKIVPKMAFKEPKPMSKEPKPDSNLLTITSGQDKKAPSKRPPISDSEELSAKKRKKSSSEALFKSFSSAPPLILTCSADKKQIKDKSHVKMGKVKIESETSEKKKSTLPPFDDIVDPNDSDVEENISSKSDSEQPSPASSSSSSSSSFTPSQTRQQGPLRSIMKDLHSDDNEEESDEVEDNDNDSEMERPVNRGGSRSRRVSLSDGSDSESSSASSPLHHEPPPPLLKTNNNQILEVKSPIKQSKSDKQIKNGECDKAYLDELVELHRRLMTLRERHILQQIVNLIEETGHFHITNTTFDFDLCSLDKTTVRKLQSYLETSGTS
# ALR inh: inhibitors of human sulfhydryl oxidase ALR | purified ALR, DTT oxidation, H2O2 HRP-luminol luminescence | P55789 | AID 485317 | hit rate 3.8% among 290,000 | inhibition, % (test concentration not listed);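 active = mean and each replicate at 75% or more; inconclusive = only one of the two met; inactive = neither met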;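 note: stock transfer was 7.5 nL into about 7.5 µL; 0% = neutral wells and 100% = wells with inactivated enzyme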
# rRNA inh HTS OD600: second read-out of rRNA inh HTS, no call of its own (marks repeat the call); OD600 change, %; measured here: OD600 growth;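 optical density of the mix in the first replicate; 0 = DMSO median and -100 = no signal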
# rRNA inh HTS RFP: further read-out of rRNA inh HTS, marked with its call; RFP signal change, %; measured here: RFP humanized mutant strains;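 first replicate; 0 = DMSO median and -100 = no signal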
# * marks the source's active call; other numbers are inactive results; i = inactive; ? = inconclusive; · = not tested or not shown. This is a subset (hit frequency here may not be typical).
SMILES,Vif A3G,Ecoli growth,rRNA inh HTS,rRNA inh HTS OD600,rRNA inh HTS RFP,FGF22 binding,HNF4A DNA FP,MLL AF4-AF9 inh,ALR inh
Cc1ccc(-c2ccc(CN3C(C(C)C)C(=O)N(Cc4cn(CC5CCCCC5)nn4)CCS3(=O)=O)cc2)cc1 (centres undefined),·,·,7,5,-0.9,i,0.3,-0.9,·
CC(=O)Nc1ccc(CN2CCN(CCC(C)C)C(CCO)C2)cc1 (centres undefined),·,0.72,8,4,-4.1,i,-4.0,-2.3,3
CCC(CC)NC(=O)COC(=O)c1cccc(C)c1O,4%,0.73,4,9,-2.7,·,-0.3,·,2
O=C(Cc1ccccn1)N[C@@H]1CC[C@H](CCNC(=O)c2cc(Cl)cc(Cl)c2)O[C@H]1CO,·,·,-1,2,2.2,i,·,0.0,·
COC(=O)COc1ccc(S(=O)(=O)Nc2ccc(NC(C)=O)cc2)cc1,30%,0.66,·,·,·,·,-4.3,·,·
CC(C(=O)OCC(=O)Nc1ccccc1OC(F)F)N1C(=O)C2CC=CCC2C1=O (centres undefined),-4%,·,11,28,0.9,i,4.6,-0.3,·
Cc1cc(S(=O)(=O)N(Cc2ccc3c(c2)OCO3)CC2CCCO2)ccc1-n1cnnn1 (centres undefined),0%,0.67,·,·,·,·,0.6,·,-6
COc1cc(C(=O)NCCc2ccc(F)cc2)ccc1OCC(=O)N1CCOCC1,-4%,0.64,·,·,·,·,0.9,·,1
CCOc1ccccc1NC(=O)C1=C(C)NC(=O)NC1c1cccc(OC)c1OC (centres undefined),5%,0.65,0,-3,-2.1,i,5.8,4.3,·
COc1ccc2c3c([nH]c2c1)[C@H](CO)N(Cc1nccs1)CC31CCN(Cc2cccnc2)CC1,·,·,3,10,0.1,i,·,2.4,·
COc1ccc(C(Cl)=C(c2ccc(OC)cc2)c2ccc(OC)cc2)cc1,·,0.71,8,16,6.8,i,-2.3,-0.6,0
CN1CCCC(OC(=O)c2ccccc2F)C1 (centres undefined),·,0.67,14,5,2.7,i,-0.4,1.4,-10
Cc1cc(NS(=O)(=O)c2ccc(NC(=O)c3ccco3)cc2)nc(C)n1,3%,0.71,·,·,·,·,-3.5,·,-5
COc1ccc(-c2nc(CS(=O)(=O)CC(=O)NCCc3ccccc3)c(C)o2)cc1,-9%,0.73,20,6,2.0,i,0.8,-8.6,-4
Cc1ccc(C)c(OCC(=O)Nc2cccc(S(=O)(=O)NC3=NCCCCC3)c2)c1,·,0.68,1,3,1.1,i,2.5,-0.2,-3
OC(COCC1COc2ccccc2O1)CN1CCN(c2ccccc2)CC1 (centres undefined),5%,0.67,·,·,·,·,-0.3,·,·
COc1ccccc1N(CC(=O)NCCSC(C)(C)C)S(C)(=O)=O,1%,0.69,-1,2,-7.5,i,-2.5,-0.9,2
COc1cc(NC(=O)Nc2nc(C(N)Cc3ccc(C(F)(F)F)cc3)cs2)cc(OC)c1OC (centres undefined),·,·,1,-5,7.0,i,-0.2,7.7,·
O=S1(=O)C[C@@H]2N=C(N/N=C/c3ccccc3)S[C@@H]2C1,5%,·,9,11,0.1,i,-2.7,-2.2,-5
Cn1cnc(S(=O)(=O)N2CCCCN3[C@@H](CO)[C@H](c4ccc(C#CC5CCCC5)cc4)[C@@H]3C2)c1,·,·,-1,-24,7.6,i,·,3.7,·
S=c1[nH]nc(-c2cc(-c3ccccc3)n[nH]2)n1/N=C/C=C/c1ccco1,?,·,5,17,5.0,i,-3.7,-3.3,-58
COC1CCCCC1NS(=O)(=O)c1ccccc1 (centres undefined),-1%,0.76,·,·,·,·,1.8,·,1
COc1ccccc1N(CCC#N)C(=S)Nc1ccc(S(=O)(=O)N2CCOCC2)cc1,-3%,0.66,-5,-1,1.3,i,6.5,6.5,71
CCCN(CCC)Cc1c(C(=O)OCC)nnn1-c1nonc1N,7%,0.74,·,·,·,·,1.9,·,·
Cc1ccc(C)c(OCCC(=O)OCC(=O)NCc2ccc(F)cc2)c1,-10%,0.7,3,4,2.0,i,-3.4,-0.5,1
SMILES,Vif A3G,Ecoli growth,rRNA inh HTS,rRNA inh HTS OD600,rRNA inh HTS RFP,FGF22 binding,HNF4A DNA FP,MLL AF4-AF9 inh,ALR inh
O=C(NCCCCc1ccccc1)C1CCCC1,·,0.62,5,-1,2.4,i,0.6,-20,-5
Cc1nc(C(C)N(C)Cc2nc(Cc3ccccc3F)no2)c(C)s1 (centres undefined),-4%,0.67,-6,-15,3.4,i,-0.1,-13,-2
CC(=O)N1CCCC(C)(C(=O)Nc2ccc3oc(C)nc3c2)C1 (centres undefined),·,·,18,12,-1.7,i,-1.4,-2.3,·
CCOC(=O)N1CCN(Cc2nc(-c3ccc(Cl)cc3)no2)CC1,-2%,0.68,·,·,·,·,0.7,·,-13
CCCN1[C@@H]2c3ccc(-c4ccccc4F)c(=O)n3C[C@@H]2[C@@H](CO)[C@@H]1C(=O)NCC,·,·,3,5,0.7,i,·,-0.9,·
COc1ccccc1NS(=O)(=O)c1ccc(NC(=O)N2CCCCC2)cc1,·,0.72,-2,0,-0.6,i,-0.2,2.1,-1
Cc1sc(NC(=O)c2c(F)cccc2F)nc1-c1ccccc1,-2%,0.66,-32,-33,-1.0,i,1.5,1.7,-5
COc1ccc(CCNC(=O)Cn2c(=O)n(CC3CCCO3)c(=O)c3ccccc32)cc1OC (centres undefined),6%,0.67,1,2,3.9,i,-0.2,-0.5,·
C[C@H](CO)N1C[C@H](C)[C@H](CN(C)CC2CC2)Oc2cc(-c3cccc(F)c3)ccc2S1(=O)=O,·,·,2,1,-0.5,i,·,3.7,·
COc1cccc(NC(=O)Nc2cc(C)on2)c1,·,0.67,-1,2,-2.4,i,-7.8,0.7,1
Cc1[nH]c(C)c2c(=O)n(-c3ccccc3)ncc12,21%,0.71,4,5,35,i,2.6,7.2,-8
CC1(C)Cc2ccccc2-c2nnc(-c3cccnc3)n21,-2%,0.67,·,·,·,·,-0.8,·,-26
Cc1nnc(SCC(=O)Nc2cc(S(=O)(=O)N3CCCC3)ccc2Cl)n1C1CC1,-10%,0.68,·,·,·,i,4.4,2.1,-2
CN(CC(=O)Nc1cccc(F)c1)C(=O)/C=C/c1ccc(S(=O)(=O)N2CCCCCC2)cc1,·,0.71,-3,-3,4.8,i,-0.8,4.3,·
COc1ccc(C(C(=O)NC(C)(C)C)N(C(=O)CCC(=O)Nc2cc(C)on2)c2ccc3c(c2)OCCO3)cc1 (centres undefined),·,0.68,0,-3,-0.6,i,1.8,-2.2,·
O=C(CN1CCN(S(=O)(=O)c2ccccc2)CC1)NC(=O)NCc1ccccc1,1%,0.77,·,·,·,·,1.6,·,-2
CCCN(C)C[C@H]1OCCCC[C@H](C)Oc2ccc(NC(=O)Nc3ccc4c(c3)OCO4)cc2C(=O)N([C@@H](C)CO)C[C@@H]1C,·,·,-2,5,-3.3,i,·,19,·
CCc1nc2ccc(C(=O)N(C)CCCN(C)C)cn2c1N(CC)CCOC,·,·,5,7,-3.2,i,2.6,-3.5,·
CC(=O)Nc1ccc(NC(=O)Cc2sc(C)nc2-c2ccc(C)cc2)cc1,11%,0.7,0,9,4.2,i,-1.4,0.8,·
C/C(=N\NC(N)=S)c1ccc2c(c1)OCCO2,4%,·,7,10,-1.1,i,-1.5,0.8,11
O=C(C[C@@H]1C=C[C@H](NC(=O)c2ccccn2)[C@@H](CO)O1)NCc1cc(F)cc(F)c1,·,·,2,21,1.4,i,·,0.8,·
COc1ccccc1NC(=O)c1sc(NC(=O)c2ccco2)c(C#N)c1C,-1%,0.72,-5,-2,-5.3,i,6.8,-30,-1
COC(=O)n1c(=O)oc2ccccc21,-3%,0.7,·,·,·,·,-2.3,·,-1
COc1ccc(CNC(=O)C[C@H]2CC[C@@H](NS(=O)(=O)c3cccc(OC)c3)[C@H](CO)O2)cc1,·,·,-1,8,1.4,i,·,0.2,·
CC(=O)Nc1ccc(S(=O)(=O)N(C)CC(=O)OC(C)C(=O)N(C)C2CCCCC2)cc1 (centres undefined),·,·,11,4,3.6,i,-0.4,-2.3,-12

# The list goes on; it opens with the 4 that closed the last part.
SMILES,Vif A3G,Ecoli growth,rRNA inh HTS,rRNA inh HTS OD600,rRNA inh HTS RFP,FGF22 binding,HNF4A DNA FP,MLL AF4-AF9 inh,ALR inh
COc1ccccc1NC(=O)c1sc(NC(=O)c2ccco2)c(C#N)c1C,-1%,0.72,-5,-2,-5.3,i,6.8,-30,-1
COC(=O)n1c(=O)oc2ccccc21,-3%,0.7,·,·,·,·,-2.3,·,-1
COc1ccc(CNC(=O)C[C@H]2CC[C@@H](NS(=O)(=O)c3cccc(OC)c3)[C@H](CO)O2)cc1,·,·,-1,8,1.4,i,·,0.2,·
CC(=O)Nc1ccc(S(=O)(=O)N(C)CC(=O)OC(C)C(=O)N(C)C2CCCCC2)cc1 (centres undefined),·,·,11,4,3.6,i,-0.4,-2.3,-12
CCOC(=O)C1(C)CCCCN1C(=O)c1cccs1 (centres undefined),·,·,8,10,2.2,i,-4.4,-1.8,·
COC(=O)c1sccc1-n1cccc1C(=O)C(=O)N1CCCC1,-6%,0.67,·,·,·,·,-2.8,·,6
CC(=NNC(=O)c1cccc(S(=O)(=O)N2CCOCC2)c1)c1ccc(Cl)cc1,-7%,0.66,0,1,-0.8,i,-3.0,0.5,-3
CC(C)c1ccc(NC(=O)CSc2nc(=O)n(CCCN3CCOCC3)c3c2CCCC3)cc1,7%,0.69,-1,5,1.5,i,1.2,3.7,99*
N/C(=N\OC(=O)c1ccc([N+](=O)[O-])cc1)c1cccnc1,·,·,·,·,·,i,3.2,-1.3,-37
CN(C)CCCNC(=O)[C@@H]1[C@@H](CO)[C@@H]2Cn3c(ccc(-c4ccncc4)c3=O)[C@H]1N2C(=O)C1CC1,·,·,4,4,0.9,i,·,-2.3,·
CC(C)CCNC(=O)CCCn1c(=O)[nH]c2ccc(Br)cc2c1=O,-1%,0.73,·,·,·,·,-0.5,·,-3
CC(C)NC(=O)c1ccc(COc2ccc(C(C)(C)C)cc2)o1,18%,0.64,13,-24,-4.8,i,-0.2,-0.5,·
C[C@H]1CCCCO[C@@H](CN(C)Cc2ccncc2)[C@@H](C)CN([C@@H](C)CO)C(=O)c2cc(N(C)C)ccc2O1,·,·,-3,1,-1.5,i,·,3.9,·
COC(=O)C[C@H]1C=C[C@@H](NS(=O)(=O)c2ccccc2F)[C@@H](CO)O1,·,·,-1,1,-0.3,i,·,-0.7,·
COc1cc(NC(=O)c2ccccc2)c(OC)cc1NC(=O)Cc1ccccc1,-6%,0.65,5,6,-0.8,i,-0.2,3.7,-47
Cc1cnc(NC(=O)c2c(Cl)cnn2C)s1,2%,0.69,9,14,0.9,i,0.5,3.1,-16
[O-][n+]1c(/C=C/c2ccccc2)ccc2ccccc21,·,0.64,3,1,-2.0,i,-2.5,7.4,8
CC(C)=CC(=O)Nc1ccccc1C(N)=O,?,0.7,·,·,·,·,-1.4,·,-2
COc1ccc(/C=C/C(=O)OCC(=O)N2CCCCCC2)c(OC)c1,-2%,0.64,-18,-23,-3.0,i,1.4,3.0,-4
C[C@H](CO)N1C[C@H](C)[C@@H](CN(C)C(=O)c2cc(Cl)cc(Cl)c2)OCc2ccccc2-c2ccccc2C1=O,·,·,1,1,3.7,i,·,-2.2,·
CC(C)N(C(=O)CSc1nnc(Cc2csc(Nc3ccccc3)n2)o1)C(C)C,-4%,0.69,-3,-7,3.8,i,1.6,3.6,4
COc1ccc(C(=O)C2CCCN(Cc3c(F)ccc(F)c3F)C2)c(OC)c1 (centres undefined),·,0.68,-30,-34,-5.8,i,-2.1,1.9,1

# Source: PubChem (several laboratories)
